# High-throughput results deposited in PubChem by Johns Hopkins Ion Channel Center.
# KCNQ2 inh: KCNQ2 potassium channel inhibitors, primary screen, cell-based, CHO-K1, FluxOR thallium flux, B-score (AID 2156); 20 min; hits give low values; only compounds with negative scores are shown here; some inactives read as strong as hits; B-score at 10 µM; 310,000 tested, 1.1% active;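 active means fluorescence ratio B-score at most minus 3 library SDs, with starting brightness B-score within 2 library SDs, cut at about -5.5 in these data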
# Target sequence (O88943 whole entry, looked up): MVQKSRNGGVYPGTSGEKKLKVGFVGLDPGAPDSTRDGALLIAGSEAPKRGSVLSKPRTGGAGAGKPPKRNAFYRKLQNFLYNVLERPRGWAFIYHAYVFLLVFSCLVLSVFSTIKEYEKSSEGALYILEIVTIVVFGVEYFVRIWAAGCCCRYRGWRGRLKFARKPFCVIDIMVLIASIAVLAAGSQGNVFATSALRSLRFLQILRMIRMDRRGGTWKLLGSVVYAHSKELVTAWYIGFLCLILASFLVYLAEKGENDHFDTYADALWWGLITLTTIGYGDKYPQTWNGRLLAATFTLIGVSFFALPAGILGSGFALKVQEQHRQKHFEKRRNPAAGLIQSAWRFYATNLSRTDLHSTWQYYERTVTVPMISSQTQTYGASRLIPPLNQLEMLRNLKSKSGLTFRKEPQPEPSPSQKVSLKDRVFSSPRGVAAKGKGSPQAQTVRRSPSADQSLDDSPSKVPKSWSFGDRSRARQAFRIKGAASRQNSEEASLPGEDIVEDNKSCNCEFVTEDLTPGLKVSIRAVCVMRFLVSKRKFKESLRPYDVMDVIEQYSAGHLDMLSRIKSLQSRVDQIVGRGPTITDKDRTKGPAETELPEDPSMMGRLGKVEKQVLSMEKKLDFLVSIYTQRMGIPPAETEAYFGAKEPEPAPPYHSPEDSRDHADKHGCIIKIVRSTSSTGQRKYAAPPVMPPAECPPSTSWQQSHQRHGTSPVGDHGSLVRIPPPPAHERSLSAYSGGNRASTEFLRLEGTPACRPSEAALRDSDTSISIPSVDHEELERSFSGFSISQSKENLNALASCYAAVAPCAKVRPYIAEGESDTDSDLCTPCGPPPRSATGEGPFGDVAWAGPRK
# KCNQ2 inh baseline: also measured in KCNQ2 inh; calls as there; B-score; measured here: initial fluorescence intensity artifact check;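 brightness before thallium and not channel activity; 0 = typical well and far values either way flag optical interference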
# The depositor's hits bear a star; i = inactive.
KCNQ2 inh	KCNQ2 inh baseline	molecule
i	1.9	CCOC(=O)C1CCN(c2c(NCc3ccc(C(=O)NC4CCCC4)cc3)c(=O)c2=O)CC1
i	1.4	O=C(CCCc1ccccc1)Nc1nnc(C(F)(F)F)s1
i	-0.76	Cc1onc(-c2c(F)cccc2Cl)c1C(=O)Nc1ccc(S(=O)(=O)Nc2ncccn2)cc1
i	1.9	CCN1CCN(C(=O)C(C)Nc2cc(Cl)c(OC)cc2OC)CC1 (stereo not drawn)
i	0.06	O=C(O)c1cccnc1SC1CC(=O)N(c2cccc3ccccc23)C1=O (stereo not drawn)
i	0.42	Fc1ccccc1NC(=S)N(CCCN1CCOCC1)Cc1cccnc1
i	0.22	COc1ccc(-c2nc3n(n2)C(c2ccccc2)C2=C(CCCC2=O)N3)cc1OC (stereo not drawn)
i	0.14	Cc1nc2c(-c3ccc(F)cc3)c(C)nn2c(C)c1CCC(=O)N1CCN(c2ccccn2)CC1
i	-0.17	O=[N+]([O-])c1ccccc1OCCCOc1cccc2cccnc12
i	4.2	Cc1cccc(C)c1OCC(O)CNC(C)c1ccccc1 (stereo not drawn)
i	-0.08	CCOC(=O)[C@@H]1[C@H]2COc3cc(OC)ccc3[C@@H]2N2C(=O)N(c3cccc(F)c3)C(=O)[C@]12C
i	0.74	Cc1ccc(-n2nc(C)c(=O)c(-c3ccccc3)c2NC(=O)c2cccs2)cc1
i	0.13	COc1cc2c(cc1OC)C(c1cccc(C)c1)CC(=O)N2 (stereo not drawn)
i	0.33	O=c1oc(-c2ccccc2NS(=O)(=O)c2ccccc2)nc2ccccc12
i	0.23	COC(=O)c1ccc(CNC(=O)CN(CCC(C)C)S(=O)(=O)c2ccc3c(c2)OCCO3)cc1
i	-1.6	CCCC1(C(=O)OCC)NC(c2ccco2)C2C(=O)N(C)C(=O)C21 (stereo not drawn)
i	0.5	CCN1CCN(CCNC(=O)C2CCN(Cc3nc(-c4ccc(Cl)cc4)oc3C)CC2)CC1
-7.3*	-1.7*	CC(=O)n1cc(C(C[N+](=O)[O-])SCCN)c2ccccc21 (stereo not drawn)
i	-0.68	N#Cc1cc2c(nc1SCC1COc3ccccc3O1)CCC2 (stereo not drawn)
i	-2.2	CC1=C(C(=O)OCc2ccccc2)C(/C=C/c2ccccc2)NC(=S)N1 (stereo not drawn)
i	-0.52	COc1ccc(C)cc1Nc1cc(C)nc2nc(C)nn12
i	0.64	CCOc1cc(C(=O)NCc2ccc(C)cc2)ccc1OCC(=O)N1CCOCC1
i	-1.8	COc1ccc(C)cc1C(=O)CCC(=O)Nc1ccccc1N1CCOCC1
i	1	CC(C)(C)OC1NS(=O)(=O)OCC1NCOC(Cl)(Cl)Cl (stereo not drawn)
i	1.1	N#CC(C#N)=C1NC2(CCCCC2)Cc2ccccc21
i	0.87	C/C(CC(=O)Nc1c(C)cc(C)cc1C)=N\NC(=O)Cc1ccccc1
i	0.05	COc1cc(-c2nc3cc(C)ccn3c2NC2CCCCC2)ccc1-c1ccc(C(C)=O)cc1
i	2.7	Cc1cc(OC(C)C(=O)NCCCn2ccnc2)c2c(C)cc(=O)oc2c1 (stereo not drawn)
i	2.4	COc1ccc(NC(=O)NC(C)c2ccc3c(c2)OCO3)c(OC)c1 (stereo not drawn)
i	0.69	CC(=O)c1ccc(C(=O)Nc2nnc(-c3ccc(Cl)cc3)o2)cc1

# Full records from above. Order of screens: KCNQ2 inh | KCNQ2 inh baseline
# COc1cc(-c2nc3cc(C)ccn3c2NC2CCCCC2)ccc1-c1ccc(C(C)=O)cc1 is listed with i | 0.05
# COc1ccc(C)cc1C(=O)CCC(=O)Nc1ccccc1N1CCOCC1 is listed with i | -1.8
# N#CC(C#N)=C1NC2(CCCCC2)Cc2ccccc21 is listed with i | 1.1
# O=c1oc(-c2ccccc2NS(=O)(=O)c2ccccc2)nc2ccccc12 is listed with i | 0.33

# Additional records follow:
KCNQ2 inh	KCNQ2 inh baseline	molecule
i	2.1	COc1ccc(NC(=O)c2c(-c3c(Cl)cccc3Cl)noc2C)c(OC)c1
i	0.3	Brc1ccccc1-c1nnc2sc(Cc3ccccc3)nn12
i	1	O=C1CC(c2ccsc2)Sc2ccccc2N1 (stereo not drawn)
i	0.28	CCSc1nc2sc3c(c2c(=O)n1CC)CCC3
i	0.01	O=C(/C=C/c1ccccc1)OCc1cnc(Cl)s1
i	-0.01	O=C(CSc1nnc2c3ccccc3c3ccccc3c2n1)Nc1ccccc1
i	-0.88	Nc1nc(SCc2nnc(SCC(=O)O)n2-c2ccccc2)nc2sc3c(c12)CCCC3
i	-0.9	COc1cc2c(cc1OC)CN(CC(=O)Nc1ccc(C)c(S(=O)(=O)N3CCOCC3)c1)CC2
i	-0.2	COc1ccc(-c2cc(C#N)nc(N3CCN(c4ccccc4)CC3)n2)cc1
i	-0.14	C#Cc1ccc([C@H]2C=C(C(=O)N3CCOCC3)O[C@@H](OCC)[C@@H]2CCCO)cc1
i	-0.69	CCOCCCNC(=O)c1ccc(NC(C)=O)cc1
i	-4.2	C/C(=N\NS(=O)(=O)c1ccc(Cl)c([N+](=O)[O-])c1)c1ccc(C)o1
i	-0.11	COc1ccc(C(=O)N/N=C/c2ccc(SC)cc2)cc1
i	-0.68	COc1ccc(-c2csc(N(C)C(=O)c3ccco3)n2)cc1
i	-0.15	CCC(C)NC(=O)c1cn(C)c(=O)c2cc(OC)c(OC)cc12 (stereo not drawn)
i	1.2	Cc1ccn2c(=O)nc(SCC(=O)Nc3cccc4ccccc34)nc2c1
i	-0.01	CC(C)(C)n1ncc2c(=O)n(CC(=O)Nc3ccc4c(c3)OCCO4)cnc21
i	2	Cc1ccc(/C=C2\SC(=S)N(CCC(=O)NNS(=O)(=O)c3ccccc3)C2=O)cc1
i	3.4	O=C(Nc1cccc(C(F)(F)F)c1)C1CCCN(c2ncccn2)C1 (stereo not drawn)
i	0.01	COc1ccc(C(=O)Nc2ccccc2[N+](=O)[O-])cc1S(=O)(=O)N1CCOCC1
i	1.7	CCCCCOc1ccc(Cn2ccnc2)cc1[N+](=O)[O-]
i	-0.07	Cn1cc(CCC(=O)N2CCCC(Nc3ccc(F)cc3)C2)cn1 (stereo not drawn)
i	-2.2	Cc1ccc2nsnc2c1N(S(C)(=O)=O)S(C)(=O)=O
i	1.2	COc1ccc(C(=O)CSc2nnc(CN3CCCCC3)n2-c2ccc(F)cc2)cc1OC
i	1.3	Cc1ccc(CN2C(=O)CCC2C(=O)NCc2cccnc2)cc1 (stereo not drawn)
i	0.45	CCN(CCCn1c(=S)[nH]c2ccc(N3CCOCC3)cc2c1=O)c1ccccc1
i	2.2	C=CCCC(=O)NC1CCCc2c1cnn2-c1ccccc1F (stereo not drawn)
i	0.09	CC1(C)Cc2ccccc2-c2nnc(SCc3ccc(C#N)cc3)n21
i	-0.15	O=C(NN1C(=O)C2C(C1=O)C1C=CC2C12CC2)c1ccccc1Cl (stereo not drawn)
i	-0.21	O=C(NNC(=O)C1CC1)c1cccc([N+](=O)[O-])c1

# In the list so far, 9 contain a Cl atom.
KCNQ2 inh	KCNQ2 inh baseline	molecule
i	-0.76	Cc1onc(-c2c(F)cccc2Cl)c1C(=O)Nc1ccc(S(=O)(=O)Nc2ncccn2)cc1
i	1.9	CCN1CCN(C(=O)C(C)Nc2cc(Cl)c(OC)cc2OC)CC1 (stereo not drawn)
i	0.5	CCN1CCN(CCNC(=O)C2CCN(Cc3nc(-c4ccc(Cl)cc4)oc3C)CC2)CC1
i	1	CC(C)(C)OC1NS(=O)(=O)OCC1NCOC(Cl)(Cl)Cl (stereo not drawn)
i	0.69	CC(=O)c1ccc(C(=O)Nc2nnc(-c3ccc(Cl)cc3)o2)cc1
i	2.1	COc1ccc(NC(=O)c2c(-c3c(Cl)cccc3Cl)noc2C)c(OC)c1
i	0.01	O=C(/C=C/c1ccccc1)OCc1cnc(Cl)s1
i	-4.2	C/C(=N\NS(=O)(=O)c1ccc(Cl)c([N+](=O)[O-])c1)c1ccc(C)o1
i	-0.15	O=C(NN1C(=O)C2C(C1=O)C1C=CC2C12CC2)c1ccccc1Cl (stereo not drawn)

# New compounds follow
KCNQ2 inh	KCNQ2 inh baseline	molecule
i	0.04	CC(=O)N1CCOc2ccc(S(=O)(=O)NCCc3cccc(C)c3)cc21
i	0.99	COc1ccc(OC)c(S(=O)(=O)N2CCCC(C(=O)NCc3cccnc3)C2)c1 (stereo not drawn)
i	1.3	O=S(=O)(CCCc1ccccc1)c1ncn[nH]1
i	-0.52	O=C(C1=C[C@H](C2CC2)C[C@H](OCCCCO)O1)N1CCN(Cc2ccccc2)CC1
i	-0.01	O=C(NC1CCCCC1)n1c(=O)oc2cc(S(=O)(=O)N3CCCCC3)ccc21
i	0.04	CCc1nonc1NC(=O)c1oc2ccc(F)cc2c1C
i	-0.3	CCc1cc(CN2CCOCC2)c(NC(=O)c2ccccc2)s1
i	0.97	CCc1c(C)sc(NC(=S)N2CCN(CC)CC2)c1C(=O)OC
i	1.6	O=C(N/N=C\c1cccc(Br)c1)c1ccccc1-n1cccc1
i	2	Cc1cc(C)c(S(=O)(=O)Nc2ccc3c(c2)CCC3)c(C)c1
i	-0.21	O=C(COc1cc(F)ccc1[N+](=O)[O-])Nc1ccc(N2CCCCC2)cc1
i	0.4	O=C(Cn1cc(S(=O)(=O)Cc2cccc([N+](=O)[O-])c2)c2ccccc21)N1CCOCC1
i	0.01	O=C(CNS(=O)(=O)c1ccc(Br)s1)N1CCCC1
i	1.6	Cc1ccc(C2Nc3ccccc3NC3=C2C(=O)CC(C)(C)C3)c(O)c1 (stereo not drawn)
i	1.7	COc1cccc(CN2CCC(C(=O)Nc3ccc(-c4cccc(C)c4)cc3)CC2)c1O
i	0.55	CCCSc1nnc(Cn2c(=O)sc3ccccc32)n1C
i	-0.07	CS(=O)(=O)N1CCN(C(=O)Cc2ccccc2)CC1
i	0.95	O=C(O)c1cc(NC(=O)C2CCCO2)cc(NC(=O)C2CCCO2)c1 (stereo not drawn)
i	-2	CCOC(=O)Cc1csc(NC(=O)c2c(-c3ccccc3)noc2C)n1
i	-1.8	NS(=O)(=O)c1ccc(CCNC(=O)CNCCc2ccccc2)cc1
i	0.97	O=C(CC1(CC2=NS(=O)(=O)c3ccccc3N2)CCCC1)NCCc1ccccc1
i	-0.23	CCC(CO)NCC(O)COCc1ccc2c(c1)OCO2 (stereo not drawn)
i	-2	N#Cc1cc2ccccc2nc1SCc1cccnc1
i	0.65	COc1cccc(Oc2cn[nH]c2-c2ccc(OCC(=O)NN)cc2O)c1
i	0.02	O=C(CNc1cccc2ccccc12)N/N=C/c1ccc([N+](=O)[O-])o1
i	0.25	Cc1ccc(NC(=O)CSc2nc3ccccc3nc2N2CCOCC2)c(C)c1
i	1.9	Cc1ccc(C(=O)NCc2ccco2)cc1Br
i	0.84	NNC(=O)c1ccc(Cn2cccn2)o1
i	0.02	COc1ccc(NC(=O)C(=O)NCC(c2ccco2)N2CCc3ccccc3C2)cc1 (stereo not drawn)
i	0.18	CCCCN(CCCC)Cc1ccc(C(=O)NN)o1

# Further entries:
KCNQ2 inh	KCNQ2 inh baseline	molecule
i	0.49	COc1ccc(OC)c(C(=O)c2coc3ccc(OC)cc23)c1
i	0.94	COc1ccccc1OCCn1cc(/C=C(\C#N)C(=O)NCc2ccco2)c2ccccc21
i	0.59	Cc1ccc(-n2nnnc2SCC(=O)Nc2ccc(N3CCN(C)CC3)cc2)c(C)c1
i	0.34	CC(=O)c1c(N2CCCCC2)nc(=S)n(Cc2ccccc2)c1C
i	0.98	CCc1nnc(NS(=O)(=O)c2ccc(N/C=C\C(=O)c3ccc(C)cc3)cc2)s1
-5.7*	-0.88*	COc1ccc(S(=O)(=O)N(CC(N)=O)C2CCCCC2)cc1Cl
i	0.1	O=C(NCC(O)c1ccccc1)Nc1cccs1 (stereo not drawn)
i	1.6	COc1cc2c(cc1OC)CN(C(=O)c1cc(S(=O)(=O)N3CCOCC3)ccc1Cl)CC2
i	1.1	COc1ccc(C(=O)N(C)CC(O)c2ccccc2)cc1OC1CCN(C(C)=O)CC1 (stereo not drawn)
i	-0.14	OCCC1CN(Cc2cnc(N3CCCC3)s2)CCN1Cc1ccccc1 (stereo not drawn)
i	-0.07	CCOc1cc(C(c2c(C)[nH][nH]c2=O)c2c(C)[nH][nH]c2=O)ccc1OC(=O)c1cccc([N+](=O)[O-])c1
i	0.42	Cc1cc(C(=O)CSc2nc3ccccc3n2CCC#N)c(C)n1Cc1cccs1
i	1.8	FC(F)(F)c1cccc(/C=N/NC(=S)NC2CCCCC2)c1
i	0.85	O=C(CCCN1C(=O)/C(=C/c2ccco2)SC1=S)Nc1cccc(C(=O)O)c1
i	-0.8	O=C(CN1C(=O)S/C(=C/c2cccs2)C1=O)N1CCOCC1
i	1.6	CN(C(=O)COc1cc(=O)n(C)c2ccccc12)c1ccc(Cl)cc1
i	-0.1	CC1CCN(C(=O)CSc2nc3ccccc3[nH]2)CC1
i	0.15	Cc1cc(C)nc(NC(=O)CSc2ncccn2)n1
i	-0.96	CCOC(=O)c1ccc(NCc2ccc(N(C)C)cc2)cc1
i	0.66	CC(N=C(NS(=O)(=O)c1ccc(Cl)cc1)c1ccccc1)C(=O)O (stereo not drawn)
i	-1.9	Cc1ccc(NC(=O)c2cc(S(=O)(=O)N3CCOCC3)c(Br)s2)cc1
i	2.8	COc1ccc(C(=O)Nc2ccc3c(c2)OCO3)cc1OC
i	4.4	COCCNC(=O)CCCCCNS(=O)(=O)c1ccc(C)cc1
i	-1.9	O=C(CSc1nc2ccccc2o1)Nc1cc(C(F)(F)F)ccc1N1CCOCC1
i	-1.7	CCn1c(SCC(=O)N/N=C/C(C)=C/c2ccco2)nnc1-c1ccccc1
i	0.59	CCOc1ccc(N=CC2=C(O)CC(C)(C)CC2=O)cc1
i	1.4	CN(CC(CC(=O)Nc1nncs1)c1ccccc1)S(=O)(=O)c1ccccc1 (stereo not drawn)
i	-0.06	COC(=O)c1ccccc1NC(=S)N1CCN(c2ccccn2)CC1

# A portion of the library; rates above refer to the full screens.
